StopGo reporter – FMDV 2A StopGo reporter, luciferase signal; human cells with a luciferase reporter of 2A StopGo recoding; control for the full effect not named in the record; Potency, µM (top dose mostly 57.9 µM), without a hit: at the highest dose signal change, negative = less light; hit rate 1.2% among 410,000; AID 1159524; active = well fitted falling curve with a large enough effect; inconclusive = small, poorly fitted or top-dose-only effect; inactive = no such curve, though single readings can be large or run the other way; tested in HEK293T cells; also: % is scaled to controls: 0 for no effect and ±100 for the full control effect; nearly all actives have a fitted effect of over 45% in size; luciferase light after 4 h
Cruzain Triton – blocks cruzain activity in presence of Triton detergent; P25779; purified cruzain, Z-FR-AMC fluorescence, 0.01% Triton; Potency, µM, for inactives: max response, negative = inhibition, most hits filed as inhibitors; hit rate 0.43% among 200,000;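 also: plate controls were neutral wells for no effect and buffer without enzyme for full effect; nearly all actives have a fitted effect of over 40% in size; top concentration of the series not given in the record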
Target sequence (P25779 123-467 limits assumed): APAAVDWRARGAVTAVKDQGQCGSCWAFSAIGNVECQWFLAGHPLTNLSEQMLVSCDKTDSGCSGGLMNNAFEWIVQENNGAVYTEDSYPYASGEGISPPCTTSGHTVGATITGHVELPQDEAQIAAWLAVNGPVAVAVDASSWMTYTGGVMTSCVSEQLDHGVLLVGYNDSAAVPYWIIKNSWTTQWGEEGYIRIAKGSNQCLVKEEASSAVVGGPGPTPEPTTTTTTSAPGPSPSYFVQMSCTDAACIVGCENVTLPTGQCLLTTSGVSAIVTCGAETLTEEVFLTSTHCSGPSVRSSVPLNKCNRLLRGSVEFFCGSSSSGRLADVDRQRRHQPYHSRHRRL
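Enzyme 1.5 nM, Z-FR-AMC 2 uM, NaOAc 100 mM pH 5.5, DTT 5 mM, Triton X-100 0.01%; 15 min RT compound preincubation; kinetic ex360/em450, 60 s delta.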
LASV entry inh – blocks Lassa virus binding to or entry into cells; hit rate 1.2% among 300,000; Lassa virus pseudotype entry inhibition, cell reporter; control for the full effect not named in the record; Potency, µM (series often up to 37.9 µM), for the others: at the top dose activity change, negative = inhibition, hits mostly inhibitors; AID 540256; active means well fitted inhibition curve with a large enough effect; inconclusive means small, poorly fitted or top-dose-only effect, or effect the other way; inactive means flat fitted curve, though single readings scatter; tested in HEK293 cells; also: % is scaled to controls: 0 for no effect and ±100 for the full control effect; nearly all actives have a fitted effect of over 50% in size; luciferase read-out
SARS PLP yeast – blocks SARS-CoV papain-like protease in a yeast assay; S. cerevisiae expressing SARS-CoV PLpro, growth rescue; control for the full effect not named in the record; Potency, µM (highest dose often 32.9 µM), for inactives: at the highest dose activity, positive = growth rescue; hit rate 0.19% among 330,000; AID 485353; active means well fitted rising curve with a large enough effect; inconclusive means small, poorly fitted or top-dose-only effect; inactive means no such curve, though single readings can be large or run the other way; also: 0% is about no effect; nearly all actives have a fitted effect of over 55% in size; growth read by luminescence after 48 h
Cruzain inh noDet – inhibitors of Trypanosoma cruzi cruzain without detergent | Potency, µM, without a hit: max response, negative = inhibition, hits mostly inhibitors | hit rate 2.3% among 200,000 | AID 1476 | purified cruzain, Z-FR-AMC fluorescence, no detergent | P25779;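 also: plate controls were enzyme without inhibitor for no effect and buffer without enzyme for full effect; nearly all actives have a fitted effect of over 40% in size; top concentration of the series not given in the record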
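Detergent-free condition (0.00005% Triton X-100) in acetate buffer pH 5.5 with DTT. 1.5 nM enzyme and compound were pre-mixed 15 min, then 2 uM Z-FR-AMC substrate added; reaction progress from fluorescence change between first and third reads (60 s).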
RE007 growth inh – less growth of the S. pombe RE007 Vpr strain; S. pombe RE007 Vpr strain, BacTiter-Glo ATP luminescence, 24 h; control for the full effect not named in the record; Potency, µM (top dose mostly 92.2 µM), for the others: at the top dose activity change, negative = less growth; hit rate 0.21% among 360,000; AID 651644; active = well fitted falling curve with a large enough effect; inconclusive = small, poorly fitted or top-dose-only effect; inactive = no such curve, though single readings can be large or run the other way;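 also: % is scaled to controls: 0 for no effect and ±100 for the full control effect; nearly all actives have a fitted effect of over 50% in size; the assay follows cell death caused by Vpr and the record does not say whether a fall means rescue or toxicity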
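Fission yeast strain RE007, carrying one chromosomally integrated HIV-1 vpr copy, was seeded at OD 0.01 in PMG+AL medium with 23 nL pinned compound. After 24 h at 30 °C and 99% humidity, viability was read by BacTiter-Glo luminescence.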
MARV entry inh – blocks Marburg virus binding to or entry into cells. Marburg virus pseudotyped entry inhibition, cell reporter; control for the full effect not named in the record; about a third of the inactives were read at about 46 µM. Potency, µM (top dose mostly 37.8 µM), for the others: top-dose activity change, negative = inhibition, usual class: inhibitors. hit rate 1.8% among 300,000; active = well fitted inhibition curve with a large enough effect; inconclusive = small, poorly fitted or top-dose-only effect, or effect the other way; inactive = flat fitted curve, though single readings scatter; tested in HEK293 cells; about a fifth of its hits are not listed in these tables; also: % is scaled to controls: 0 for no effect and ±100 for the full control effect; luciferase read-out
NS1 inh – blocks influenza NS1 protein function | hit rate 0.4% among 270,000 | Potency, µM (highest dose often 46.1 µM), for inactives: at the top dose activity, positive = more growth | S. cerevisiae slowed by influenza A NS1, growth recovery by OD600; active means well fitted rising curve with a large enough effect; inconclusive means small, poorly fitted or top-dose-only effect; inactive means no such curve, though single readings can be large or run the other way; also: nearly all actives have a fitted effect of over 50% in size
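A cell-based growth assay was used: compounds that relieve NS1-induced slow growth of budding yeast raise OD600. Assay medium was yeast nitrogen base with ammonium sulphate and -URA supplement, pH 6.0, with 2% galactose.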
Numbers without * were called inactive; ? = inconclusive; · = no result given; [ ] = dose if it differs, or a comment. Unless noted, calls follow the shape of the dose curve; as a rule, active = well fitted curve in the direction sought with a large enough effect; inconclusive = small, poorly fitted or top-dose-only effect, or another doubt; inactive = no such curve, though single readings can be large; an effect the other way counts as inactive or inconclusive. Potency is read from the fitted curve at half-maximal effect.

SMILES | StopGo reporter | Cruzain Triton | LASV entry inh | SARS PLP yeast | Cruzain inh noDet | RE007 growth inh | MARV entry inh | NS1 inh
CC1C(=O)OC2CCN3CC4OC4(COC(=O)C(C)(O)C1(C)O)C23 (stereo not given) | -13% | · | 0% | · | · | 2% | 28% | ·
CCCN(CC(=O)Nc1ccccc1C)C(=O)c1ccc(Cl)c(S(=O)(=O)N2CCCC2)c1 | 2% | · | ? | · | · | 5% | -18%[46.1 µM] | ·
CC(=O)c1cccc(NC(=O)Cc2ccc3c(c2)CCCC3)c1 | · | -3.4% | ? | -7% | 1% | -8% | -17% | -8%
Cc1cccc(NS(=O)(=O)c2c(C)noc2C)c1 | 52%[activator] | · | -2%[46.1 µM] | -1% | · | 5% | 14%[46.1 µM] | ·
Cc1ccc(S(=O)(=O)Nc2c(C)n(C)n(-c3ccccc3)c2=O)cc1C(=O)OCC(=O)N1CCCC(C)C1 (stereo not given) | 8% | · | 0%[46.1 µM] | 8% | · | -22% | 0%[46.1 µM] | ·
CCn1c(C(=O)NCc2cccnc2)cc2sc(Cl)cc21 | ? | -4.5% | 2% | -22% | -2% | -8% | 6% | -2%
NNC(=O)Cn1c2ccccc2c2ccccc21 | -4% | · | 7% | 0% | · | 2% | 1%[46.1 µM] | -3%
Cn1c(N2CCOCC2)c(/C=N/OC(=O)c2ccc(F)cc2)c2ccccc21 | -10% | -6.0% | ? | 1% | -1% | ? | ? | -211%
Oc1cccc(Nc2ncnc3c2oc2ccccc23)c1 | 11% | · | -6%[46.1 µM] | 0% | · | 12% | ? | 3%
Cc1ccc([N+](=O)[O-])cc1NC(=O)c1cccs1 | 3% | · | · | -7% | · | -16% | · | -2%
Cc1ccc(S(=O)(=O)N2CCC(C(=O)N(C)C3CCS(=O)(=O)C3)CC2)cc1 (stereo not given) | 1% | 1.7% | 9% | -2% | -5% | -18% | 6% | 2%
CCOC(=O)c1cccc(NC(=O)c2oc3c(c2C)-c2nn(CC)cc2CC3)c1 | 24% | -5.9% | -9%[46.1 µM] | · | 12% | · | · | ·
CCN(C(=O)COC(=O)c1ccc(N2C(=O)c3ccccc3C2=O)cc1)C1CCS(=O)(=O)C1 (stereo not given) | 8% | · | ? | 0% | · | 1% | -1%[46.1 µM] | 8%
CCOc1ccc(S(=O)(=O)NCCC(=O)Nc2ccncc2)cc1 | 19% | · | 5% | 6% | · | -4% | 5% | ·
COc1cc(NC(=O)c2ccc(-c3csc(C)n3)cc2)c(OC)cc1Cl | 7% | · | 4%[46.1 µM] | -1% | · | 7% | 9%[46.1 µM] | -4%
CC(=O)c1cccc(NC(=O)NCCS(C)=O)c1 (stereo not given) | -11% | 0.7% | 6% | -2% | 13% | 6% | 14% | -10%
CNC(=S)Nc1sc2c(c1C(=O)OC)CCC2 | -4% | · | 2%[46.1 µM] | -5% | · | 16% | ? | ·
COc1ccc(C(=O)NC(=S)Nc2nc(-c3ccc(OC)c(Br)c3)cs2)cc1Br | -11% | · | · | ? | · | -7% | · | 7%
O=C(NC1(C(F)(F)F)NC(=O)N(Cc2cccnc2)C1=O)c1cccs1 (stereo not given) | 0% | 4.3% | 11% | 3% | 3% | 1% | 0% | 3%
CCNc1nc(SC(C)C(=O)Nc2ccccc2)nc(N(C)C)n1 (stereo not given) | -3% | · | -11%[46.1 µM] | 0% | · | 1% | ? | ·
COc1ccc(-c2nnc(-c3ccc(N(C)C)cc3)o2)cc1 | 61%[activator] | -0.3% | 8% | · | -3% | -9% | ? | 3%
CC(=O)Nc1ccc(OCC(O)CN2CCN(Cc3ccccc3)CC2)cc1 (stereo not given) | · | 0.5% | 12% | 6% | -10% | 7% | 3% | 1%
O=C(NC(=S)N1CCCCC1CO)C12CC3CC(CC(C3)C1)C2 (stereo not given) | -11% | · | · | -1% | · | -2% | · | -10%
Cc1cc(-c2ccccc2)c(C#N)c(=S)[nH]1 | -17% | -3.8% | 4% | 25% | -2% | 51% | 14% | 18%
COc1cc(S(=O)(=O)N2CCCN(C)CC2)ccc1NC(C)=O | 31%[activator] | · | -15%[46.1 µM] | 4% | · | -8% | 0%[46.1 µM] | 2%
SMILES | StopGo reporter | Cruzain Triton | LASV entry inh | SARS PLP yeast | Cruzain inh noDet | RE007 growth inh | MARV entry inh | NS1 inh
Cc1ccc(C(=O)Nc2ccc3c(c2)ncn3C)cc1 | 44%[activator] | 2.6% | ? | 2% | -11% | -13% | ? | -4%
COc1ccc(OC)c(NC(=O)C2CC2c2ccccc2)c1 (stereo not given) | -2% | · | · | -7% | · | 6% | · | -34%
COc1ccccc1CNC(=O)C(NC(=O)c1ccccc1C)C(C)C (stereo not given) | 0% | · | -1% | -1% | · | 2% | -5%[46.1 µM] | ·
Cc1ccc2c(CC(=O)N3CCN(S(=O)(=O)c4ccccc4)CC3)coc2c1 | ? | · | ? | 0% | · | -8% | 20% | ·
COc1ccc2nc(SCC(=O)Nc3ccc4c(c3)OCCO4)[nH]c2c1 | ? | 3.7% | 9% | -2% | 3% | -21% | 5% | ?
COc1ccc(C(=O)C(C)OC(=O)c2cccc(S(=O)(=O)Nc3c(C)n(C)n(-c4ccccc4)c3=O)c2)cc1 (stereo not given) | -8% | · | -3% | -6% | · | -1% | 10% | ·
C=CCOc1ccc(C=Nc2ccc(OC)cc2)c(O)c1 | 3% | · | 1%[46.1 µM] | 7% | · | 9% | ? | ·
Cc1ccc(S(=O)(=O)N[C@H](C(=O)OCn2nnc3ccccc3c2=O)C(C)C)cc1 | ? | 0.2% | -23% | 10% | 3% | -7% | -23% | -59%
COC(=O)c1sccc1NC(=O)c1ccncc1 | -7% | 0.4% | -16% | 0% | -7% | -7% | 0.1µM* | -14%
COc1ccc(-c2cn3nc(SCC(=O)Nc4ccc(C)c(Cl)c4)ccc3n2)cc1 | 26% | 0.9% | 13%[46.1 µM] | · | 0% | · | · | ·
Cc1ccc(-c2cc(C(=O)N3CCCC3)no2)cc1 | · | 3.4% | ? | -10% | 4% | 5% | ? | 0%
Cc1ccc2cc(CN(Cc3cccs3)Cc3nnnn3CC3CCCO3)c(=O)[nH]c2c1 (stereo not given) | · | -2.2% | -20% | -2% | 11% | 5% | -24% | -14%
Cc1ccc(SCC(=O)Nc2cccnc2)cc1 | -21% | · | 30% | · | · | 10% | 9% | ·
Cc1cc(CN(C)C(=O)CC2C(=O)NCCN2CC(c2ccccc2)c2ccccc2)on1 (stereo not given) | -9% | · | -3% | -1% | · | 4% | 2%[46.1 µM] | 6%
COC(=O)CN(C#N)c1nc(N(C)C)nc(N(C)C)n1 | 0% | · | 20% | -5% | · | 7% | 17%[14.2 µM] | ·
CCCCCCSc1nsc(NC(=O)CC(C)C)n1 | 4% | -8.7% | -57%[46.1 µM] | -4% | -7% | 8% | ? | -25%
COc1ccc(-n2nc(C(=O)NCC(=O)NCC3COc4ccccc4O3)c3ccccc3c2=O)cc1OC (stereo not given) | 0% | · | -20%[46.1 µM] | 2% | · | -10% | ? | -3%
CC1CN(CC(=O)Nc2cccc(C(=O)Nc3cccc(C(F)(F)F)c3)c2)CC(C)O1 (stereo not given) | ? | -0.7% | ? | -18% | ? | 1% | ? | -48%
O=C(c1ccc(CN2CCOCC2)cc1)N1CCN(Cc2ccccc2)CC1 | -15% | 2.7% | 6% | 10% | 0% | 0% | 3% | ?
COc1ccc2c(c1OC)C(=O)N1c3ccccc3SC21 (stereo not given) | 53%[activator] | -4.8% | -24% | 3% | -7% | -3% | ? | -7%
Cn1nc(C(=O)Nc2ccccc2)c2c1-c1ccccc1S(=O)(=O)C2 | -7% | · | -2%[46.1 µM] | 0% | · | -10% | 0%[46.1 µM] | 3%
CCn1c2ccccc2c2cc(NC(=O)CSc3nccc(=O)[nH]3)ccc21 | -7% | · | -9% | 8% | · | -14% | 11% | ·
CCC(C)c1ccc(S(=O)(=O)N2CC(=O)Nc3ccccc32)cc1 (stereo not given) | -22% | -5.5% | -14% | 8% | -5% | -1% | ? | -1%
Nc1nc(N)nc(-c2ccccn2)n1 | -12% | 5.9% | 5% | -2% | 6% | -3% | 15% | 4%
O=C(CSc1n[nH]c(-c2ccc(S(=O)(=O)NC3CCCCC3)cc2)n1)N1CCCC1 | · | -3.1% | ? | -1% | 2% | 8% | -26% | -9%
SMILES | StopGo reporter | Cruzain Triton | LASV entry inh | SARS PLP yeast | Cruzain inh noDet | RE007 growth inh | MARV entry inh | NS1 inh
O=C(NCC1CCCO1)c1cc(S(=O)(=O)N2CCOCC2)ccc1Cl (stereo not given) | 0% | · | 6% | -1% | · | 0% | 2% | 1%
Nc1nnc(CC(=O)N/N=C/c2ccccc2OCc2ccccc2F)s1 | -16% | · | -8% | 1% | · | -19% | 0%[46.1 µM] | -3%
COC(=O)CCN1CCC(C(N)=O)CC1 | -9% | 6.5% | 7% | -1% | -3% | -2% | 9% | -2%
CSc1nc(Cc2ccccc2)nc2ccccc12 | -19% | · | -12% | 0% | · | 0% | 4% | -9%
COc1cc(O)cc2occ(-c3ccc(O)cc3)c(=O)c12 | 12% | · | · | 1% | · | 15% | · | 5%
COc1ccccc1CNC(=O)c1c(O)c2cc(OC)c(OC)cc2[nH]c1=O | 17% | -6.4% | ? | 2% | 3.2µM* | -1% | -10%[46.1 µM] | 5%
Cc1cc(C(=O)COC(=O)c2ccc([N+](=O)[O-])o2)c(C)n1CC1CCCO1 (stereo not given) | 8% | · | 14% | -17% | · | -26% | -16% | -7%

Entries of single compounds, looked up by structure:
`COc1ccccc1CNC(=O)C(NC(=O)c1ccccc1C)C(C)C` (stereo not given) across the screens: StopGo reporter: 0%; Cruzain Triton: ·; LASV entry inh: -1%; SARS PLP yeast: -1%; Cruzain inh noDet: ·; RE007 growth inh: 2%; MARV entry inh: -5%[46.1 µM]; NS1 inh: ·
`Cc1ccc2c(CC(=O)N3CCN(S(=O)(=O)c4ccccc4)CC3)coc2c1` across the screens: StopGo reporter: ?; Cruzain Triton: ·; LASV entry inh: ?; SARS PLP yeast: 0%; Cruzain inh noDet: ·; RE007 growth inh: -8%; MARV entry inh: 20%; NS1 inh: ·

Source: PubChem BioAssay

Random draw from the library; overall some 4.6% were active at least once.
